# Bioassay records deposited in PubChem by ICCB-Longwood Screening Facility, Harvard Medical School.
# Anaer choline gr: inhibitors of anaerobic choline-dependent gram-negative bacterial growth. Gram-negative bacterium anaerobic choline minimal medium, absorbance growth; active compounds read low; many inactives read as strong as hits in the columns shown. calls only. 55,000 tested, 0.2% active;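 active = growth z-score on choline under -2 at 7 or 20 h with little or no fall on glycerol, limits in tiers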;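 note: stock transfer was 300 nL into about 50 µL; the organism is E. coli; final concentration not given here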
# Anaer choline gr early: second read-out of Anaer choline gr, no call of its own (marks repeat the call); z-score; measured here: choline growth z-score, timepoint 1;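 score of optical density at 7 h as mean of two plates; lower means less growth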
# Starred values were filed as active, the others as inactive; i = inactive. Not all compounds are listed; rates above refer to the full screens.
# Order of values: Anaer choline gr, Anaer choline gr early
O=c1c(NCc2ccc(Cl)cc2)nccn1-c1ccc2c(c1)OCO2
 : i, -1.16
O=C(c1ccccc1Br)N1CCC(c2nc(-c3ccc(Cl)cc3)no2)CC1
 : i, 0.5
NC(=O)CSc1nnc(-c2cc3ccccc3[nH]2)o1
 : i, -1.14
Cc1ccc(-c2cnc(Nc3cccc(C(=O)NCC4CCCO4)c3)nc2)cc1 (stereo unspecified)
 : i, 0.23
CC(=O)N1CCN(C(=O)C2CCN(c3ncccc3-c3nc(-c4ccccc4)no3)CC2)CC1
 : i, 0.35
CC(C)(C)c1csc(-c2csc(S(=O)(=O)NC3CCCC3)c2)n1
 : i, -0.88
Cc1cc(SCC(=O)Nc2nc(-c3ccccc3)cs2)nc(C)n1
 : i, 1.15
Cc1ccc(Nc2c(-c3ccccc3)c(=O)c2=O)cc1F
 : i, -0.06
O=C(COc1ccc(F)cc1)Nc1nc(-c2ccccc2)ns1
 : i, -0.41
CCOc1ccccc1NC(=O)NCCCn1c(-c2ccncc2)nc2cccnc21
 : i, -1.05
Cn1c(=O)c2nc(SCC(=O)NC3CCCC3)n(C)c2n(C)c1=O
 : i, 0.04
CCc1nc(-c2csc(S(=O)(=O)N3CCC(C(=O)Nc4cccc(C)n4)CC3)c2)no1
 : i, 1.51
CC(C)c1csc(-c2csc(S(=O)(=O)N3CCN(c4ccc(F)cc4)CC3)c2)n1
 : i, 0.15
Clc1ccc(Cc2noc(Cc3nc(-c4ccccc4)cs3)n2)cc1
 : i, 1.35
O=C(C1c2ccccc2Oc2ccccc21)N1CCN(C(c2ccccc2)c2ccccc2)CC1
 : i, 0.21
CCCNC(=O)Nc1ccccc1-c1cc2ccccc2[nH]1
 : i, 0.24
O=C(NC1CC1)C1CCN(S(=O)(=O)Cc2ccc(F)cc2)CC1
 : i, -1.2
COc1ccccc1C(=O)Nc1ccc(Nc2cc(N(C)C)nc(C)n2)cc1
 : i, -0.09
O=C(COc1cc(O)c2c(=O)c3ccccc3oc2c1)c1ccc(Cl)cc1
 : i, 0.61
Cc1cccc(NC(=O)COc2ccccc2-c2nc(-c3ccccc3)no2)c1
 : i, -0.27

# Exported in CSV form: entries from further up.
SMILES,Anaer choline gr,Anaer choline gr early
Clc1ccc(Cc2noc(Cc3nc(-c4ccccc4)cs3)n2)cc1,i,1.35
O=C(C1c2ccccc2Oc2ccccc21)N1CCN(C(c2ccccc2)c2ccccc2)CC1,i,0.21

# (further entries)
# Order of values: Anaer choline gr, Anaer choline gr early
COc1ccc(-c2csc(-c3nc(-c4ccc(C)cc4C)cs3)n2)cc1F
 : i, 0.8
CCC(C)NC(=O)C1CCN(c2cc(C)c3cc(NC(C)=O)ccc3n2)CC1 (stereo unspecified)
 : i, -2.87
Cc1ccc(Cl)cc1N1CCN(CCCNC(=O)c2nnc(Cc3cccc(Cl)c3)o2)CC1
 : i, -0.14
O=C(c1ccc2c(c1)CCCN2S(=O)(=O)c1ccccc1)N1CCN(c2ccc(F)cc2)CC1
 : i, 0.84
COc1nc2ccccc2nc1N1CCC(C(=O)Nc2ccc(Br)cc2C)CC1
 : i, -0.66
CCOC(=O)c1ccc(NC(=O)Cn2nc3c(Sc4ccccc4)nc4ccccc4n3c2=O)cc1
 : i, 0.53
O=S(=O)(c1cccc(S(=O)(=O)N2CCN(c3cnccn3)CC2)c1)N1CCOCC1
 : i, 0.08
O=C(NCc1c(-c2ccccc2)nc2n1CCS2)c1ccccc1F
 : i, 0.12
O=S(=O)(NC1CCCCCC1)c1ccc(-c2cnc(C3CCCC3)o2)s1
 : i, 0.56
CCCCS(=O)(=O)N1CCC2(C1)Nc1cccnc1NC2=NC1CCCC1 (stereo unspecified)
 : i, -0.37
CC1OC(OC2C(Oc3cc(O)c4c(c3)OC(c3ccc(O)cc3)CC4=O)OC(CO)C(O)C2O)C(O)C(O)C1O (stereo unspecified)
 : i, 0.49
CCCn1cnc2cc(NCc3cccc(OC)c3)ccc21
 : i, -0.24
CC(C)(C)c1ccc(S(=O)(=O)N2CCCCC2C(=O)N2CCN(c3ccccc3F)CC2)cc1 (stereo unspecified)
 : i, 1.08
Cc1ccc(Cl)cc1NS(=O)(=O)c1cn(C)c(C)n1
 : i, 0.17
COc1cccc(-c2cn3c(n2)sc2cc(Cl)ccc23)c1
 : i, -0.14
O=C(c1cc(-c2cccnc2)n[nH]1)N1CCCC(C(=O)N2CCN(c3ccccc3F)CC2)C1 (stereo unspecified)
 : i, -0.27
COc1cc2c(C(=O)N3CCN(Cc4ccccc4)CC3)c(C)n(-c3ccccc3)c2cc1Br
 : i, -1.65
Cc1cccnc1-n1c(C)c(C)c2c1ncn1nc(-c3cccnc3)nc21
 : i, 0.07
Cn1c(=O)c2sccc2n2c(CCC(=O)NC3CC3)nnc12
 : i, -0.83
C=CCNC(=O)c1nnn(-c2ccc3noc(-c4ccc(Br)cc4)c3c2)c1C
 : i, 0.66

# More results
# Order of values: Anaer choline gr, Anaer choline gr early
COc1ccc(OCc2nnc3sc(-c4cc5ccccc5[nH]4)nn23)cc1
 : i, 0.37
CC1CCC(NC(=O)C2(C)Cn3c(cc4occc43)C(=O)N2CCCN2CCCCC2C)CC1 (stereo unspecified)
 : i, 0.53
Cc1ccc(N(CC(=O)NCc2cccc(Cl)c2)S(=O)(=O)N(C)C)cc1
 : i, 0.49
COc1cc(NC(=O)c2cc(C(F)(F)F)n(C)n2)c(OC)cc1Cl
 : i, -0.49
CC(C)(C)NC(=O)Nc1cc(F)c2nc(N3CCOCC3)ccc2c1
 : i, -1.04
c1ccc(Nc2c3c(nc4ncnn24)CCC3)cc1
 : i, -0.16
OCCNCc1ccc(-c2cccc(Cl)c2)o1
 : i, -0.95
CCc1c(C)nc2ncnn2c1Nc1cc(OC)cc(OC)c1
 : i, 0.67
COc1ccc(C2CC(=O)Nc3c2c(C)nn3-c2ccc3nnc(C)n3n2)cc1OC1CCCC1 (stereo unspecified)
 : i, 0.99
CCOc1ccc(-c2noc(CCn3c(=O)[nH]c4ccccc4c3=O)n2)cc1OC
 : i, 1.16
COc1cccc(NC(=O)N2CCN(C)c3ccccc32)c1
 : i, -0.77
CN(Cc1ccccc1)S(=O)(=O)c1ccc2c(c1)-c1oncc1CO2
 : i, 0.25
Cc1noc(/C=C/c2ccc(F)cc2F)c1S(=O)(=O)N1CCC(C(=O)Nc2nccs2)CC1
 : i, -0.69
CCn1c(Cn2cccn2)nc2cc(NC(=O)c3ccc(F)cc3)ccc21
 : i, -0.78
CCOc1ccc(Br)cc1S(=O)(=O)NCCOc1ccc(-c2ccccc2)nn1
 : i, 0.3
COC(=O)c1ccccc1NC(=O)C1CCCN(c2ncnc3onc(-c4ccc(F)cc4)c23)C1 (stereo unspecified)
 : i, -1.41
Cc1ccc(C)c(N2CCN(S(=O)(=O)c3c(C)sc(C)c3-c3n[nH]c(C)c3C)CC2)c1
 : i, 0.09
Cc1ccc2cc3c(nc2c1)N(S(=O)(=O)c1ccc2c(c1)OCCO2)CC3
 : i, -0.34
S=c1cc(N2CCSCC2)[nH]cn1
 : i, 0.56
Cc1c(C(=O)c2ccccc2)c(N)c(-c2ccccc2)n1Cc1ccc(Cl)cc1
 : i, 0.37

# Complete entries, quoted from the list. Screens in order: Anaer choline gr | Anaer choline gr early
# `C=CCNC(=O)c1nnn(-c2ccc3noc(-c4ccc(Br)cc4)c3c2)c1C` is listed as i | 0.66
# `COc1ccccc1C(=O)Nc1ccc(Nc2cc(N(C)C)nc(C)n2)cc1` is listed as i | -0.09
# `O=C(c1ccccc1Br)N1CCC(c2nc(-c3ccc(Cl)cc3)no2)CC1` is listed as i | 0.5
# `O=C(C1c2ccccc2Oc2ccccc21)N1CCN(C(c2ccccc2)c2ccccc2)CC1` is listed as i | 0.21

# Continued.
# Order of values: Anaer choline gr, Anaer choline gr early
CCCc1nnc2n1NC(c1ccc(C)cc1)C(C(=O)Nc1cc(Cl)ccc1C)S2 (stereo unspecified)
 : i, -0.51
O=C(c1cccc(Cl)c1)N1CCC(N2CCN(Cc3ccc(F)cc3)C2=O)CC1
 : i, 0.27
Cc1ccc(Nc2nnc(C)c(=O)[nH]2)cc1C
 : i, -0.97
C=CCn1c(=O)c2sc(N(CC)CC)nc2n(CC(=O)Nc2ccc3c(c2)OCCO3)c1=O
 : i, -0.11
CCn1c(=O)c(N2CCC(NC(=O)NCC3CCCO3)CC2)nc2cccnc21 (stereo unspecified)
 : i, -0.34
Cc1nc2ccccc2c(=O)n1-c1ccc(NC(=O)c2cccc(N(C)C)c2)cc1
 : i, -0.56
CCCN1CCc2nc(SCc3cc(C)ccc3C)[nH]c(=O)c2C1
 : i, -1.59
CC(C)c1cc(C2CCCN2C(=O)c2ccn(C)n2)on1 (stereo unspecified)
 : i, -0.15
COc1ccc(Cl)cc1S(=O)(=O)c1c(C(=O)N2CCCCC2)cnc2ccccc12
 : i, 1.29
CCn1c(N2CCC(C(=O)N3CCCCC3)CC2)cc(=O)n(C)c1=O
 : i, -0.45
Cc1cc(C)n(CC(=O)NCc2ccccc2)c(=O)c1S(=O)(=O)c1ccc(Br)cc1
 : i, -0.01
CCC(=O)Nc1cc(C)nn1-c1ncnc2c1cnn2-c1ccc(F)cc1
 : i, 0.07
Cc1ccc(C2C=C(c3ccccc3)Nc3nc(NS(=O)(=O)c4ccccc4)nn32)cc1 (stereo unspecified)
 : i, -1.36
c1ccc(CNc2c3c(nc4ncnn24)CCC3)nc1
 : i, 0.41
CC1CCC(NC(=O)c2sc(N3CCCC3=O)nc2C(C)C)CC1 (stereo unspecified)
 : i, -1.87
CCC(CC)C(=O)Nc1ccc(SCc2cc(=O)n3oc(C)cc3n2)cc1
 : i, -0.63
Cc1oc2ncnc(N3CCCC(C(=O)N(C)Cc4ccccc4)C3)c2c1C (stereo unspecified)
 : i, -1.48
O=C(Cc1ccc(F)cc1)NCc1nc2cccnc2n1Cc1ccc(F)cc1
 : i, -0.67
CN1CCN(CCNC(=O)CCC2CCCN(c3cc(NC4CC4)ncn3)C2)CC1 (stereo unspecified)
 : i, -0.68
CCN(CC)CCCNC(=O)C1=C(C)C(=O)OC12CCN(S(C)(=O)=O)CC2
 : i, 0.52

# (list continues)
# Order of values: Anaer choline gr, Anaer choline gr early
CCCCC1(COC(=O)CCC(=O)O)C(=O)N(c2ccccc2)N(c2ccccc2)C1=O
 : i, 0.46
Cc1ccc(NC(=O)C2CCCN(S(=O)(=O)c3c(C)nn(CC(=O)N4CCc5ccccc54)c3C)C2)nc1 (stereo unspecified)
 : i, 0.19
Cc1nc(CN2C(=O)COc3ccc(S(=O)(=O)N4CCC(C)CC4)cc32)no1
 : i, -0.43
O=C1c2cccnc2C(=O)N1Cc1ccc(S(=O)(=O)N2CCN(C3CCCCC3)CC2)cc1
 : i, -1.46
Cc1noc(C)c1C1CCCN1Cc1cccnc1 (stereo unspecified)
 : i, 0.41
CCOC(=O)c1c(NC(=O)Cn2cnc3nc(SCC)ncc3c2=O)sc(C)c1C
 : i, 0.39
CN(C)S(=O)(=O)c1ccc(-c2nnc(C(=O)NCc3cccnc3)o2)cc1
 : i, -1.06
CC(C)Cn1c(=O)[nH]c2c(C(=O)N3CCC(C)CC3)snc2c1=O
 : i, 0.87
CN(C)C(=O)c1ccc2c(c1)nc(CN1CCN(C(=O)c3ccc(Br)cc3)CC1)n2C
 : i, -0.81
CCCc1cnc2c(c1SC(C)CC)c(=O)n(C)c(=O)n2C (stereo unspecified)
 : i, -1.1
COCCn1c(SCc2nc(-c3ccc(Cl)cc3)no2)nc2cc3c(cc2c1=O)OCO3
 : i, -0.5
O=C(Nc1ccc2c(c1)OCCO2)C1CCCN(C(=O)c2ccc(Cl)cc2)C1 (stereo unspecified)
 : i, -0.41
CC(C)CC(=O)N1c2ccccc2NC2=C(C(=O)CC(C)(C)C2)C1c1ccccc1 (stereo unspecified)
 : i, -0.15
CCN1CCN(C(=O)Cn2c(=O)[nH]c3c(-c4ccccc4)c[nH]c3c2=O)CC1
 : i, -0.86
CCOc1cc(CN2CCCC2c2c(C)noc2C)ccc1OC(C)C (stereo unspecified)
 : i, 0.94
c1ccc(-c2nnc3sc(-c4ccc5c(c4)OCO5)nn23)nc1
 : i, -0.48
N#CC1=CN(c2cc(F)ccc2Cl)c2cc(F)ccc2S1(=O)=O
 : i, -1.74
Cc1cccc(CN2CCN(C(c3ccccc3)c3ccc(Cl)cc3)CC2)c1 (stereo unspecified)
 : i, 0.7
CCn1c(=O)[nH]c2cc(-c3noc(C4CCC4)n3)ccc21
 : i, 0.07
CC1CCn2c(nc3cc(C(=O)NCCN(C)C)ccc32)C1 (stereo unspecified)
 : i, -0.18

# The results go on:
# Order of values: Anaer choline gr, Anaer choline gr early
CC(C)(C)c1cc(NCc2ccccn2)n2ncc(-c3ccc(Cl)cc3)c2n1
 : i, -0.05
O=C(O)C1CCCN1C(=O)Nc1ccccc1Cl (stereo unspecified)
 : i, -0.67
COc1ccc(CC(=O)N2CCCC(c3nc(-c4ccc(NC(C)=O)cc4)no3)C2)cc1Cl (stereo unspecified)
 : i, -1.06
COc1ccc(-c2cc3ncc4c(n3n2)-c2ccccc2OC4)cc1
 : i, -1.97
COC(=O)c1ccccc1NC(=O)CSc1n[nH]c(-c2ccccc2)n1
 : i, 0.79
COc1ccc(Cc2nc3c4c(C)c(C)n(-c5cccc(C)c5)c4ncn3n2)cc1OC
 : i, 0.69
CCCCS(=O)(=O)NCCc1n[nH]c(Cc2ccccc2)n1
 : i, 0.4
O=C1Nc2cc(Cl)ccc2Oc2ccc(S(=O)(=O)N3CCSCC3)cc21
 : i, -1.71
CCc1nc2ccc(C(=O)NCCCN3CCN(C4CCCCC4)CC3)cc2nc1CC
 : i, 0
O=C(C1CCN(c2ccc3cc(S(=O)(=O)N4CCCCC4)ccc3n2)CC1)N1CCc2ccccc21
 : i, 0.32
COc1ccc(-n2nc(C(=O)N3CCN(c4ccc(F)cc4)CC3)c(=O)n(C)c2=O)cc1
 : i, -0.05
Cc1cc(C2CCCN2C(=O)C(C)C)no1 (stereo unspecified)
 : i, -0.37
Nc1cc(Cl)c(NC2=NCCN2)c(Cl)c1
 : i, 0.99
